MgrA-DNA mod: S. aureus MgrA-DNA binding modulation | fluorescence polarization | inhibition, %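 (about 10 µg/mL by stock and volumes)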 | 84,000 tested, 0.13% active | AID 602314;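 active means above 50% in either of two replicates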;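 further: 0% = protein plus DNA without compound and 100% = DNA alone without protein; higher means less MgrA bound to DNA so lower polarization; one replicate is shown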
Sa helicase inh: blocks Staphylococcus aureus DNA helicase | purified S. aureus helicase, fluorescence unwinding assay; about half of the hits fall short of the stated cut | inhibition, %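 (tested at about 80 µM)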 | 120,000 tested, 0.05% active;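 active means both duplicates at 50% or more, or one of them with a favoured structure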;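 further: 0% = mean of negative control wells and 100% = mean of positive control wells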
The depositor's hits bear a star; · = not tested or not shown; & = joins results of further samples. Not all compounds are listed (hit frequency here may not be typical).

Molecule | MgrA-DNA mod | Sa helicase inh
CN1CCCC1c1ccc(N)nc1 (centres undefined) | -1.1 | 6
N#CC1(NCCc2ccccc2)CCCCC1 | · | 9
Cc1cc(C=C(C#N)C#N)c(C)n1CC(F)(F)F | · | 1
CCOP(=S)(OCC)C1(C#N)CC1 | · | 5
Cn1c(O)c(/C=C2/C=Nc3ccccc32)c(=O)n(C)c1=O | · | 11
C=CCN1C(=O)NC(=O)C(CCc2ccccn2)(CCc2ccccn2)C1=O | 6.9 | 13
CCN1CCN(Cc2cccc3cccnc23)CC1 | 0.3 | -3
CCN(CC)c1ccc(C=C(C#N)C#N)cc1 | 0.5 | -43
CCC(=O)O[C@H]1CCC2C3CCC4=CC(=O)CC[C@]4(C)C3CC[C@@]21C (some centres undefined) | -0.7 | ·
Cn1ccnc1P(=S)(c1nccn1C)N1CCOCC1 | · | 30
CN1C(=O)C(=Cc2cn(CC(=O)N3CCCC3)c3ccccc23)C(=O)N(C)C1=O | 2.2 | 9
CCOc1ccccc1C1NC(=S)NC(c2ccccc2OCC)C12C(=O)NC(=O)NC2=O (centres undefined) | 0.4 | 8
c1ccc(CNCCc2c[nH]c3ccccc23)cc1 | · | 3
CC1CCC(C(C)C)C(OP(N)(=O)c2ccccc2)C1 (centres undefined) | · | 2
O=c1ccc2ccc3occc3c2o1 | · | 1

Remaining list, next part
Molecule | MgrA-DNA mod | Sa helicase inh
C[C@]12CC[C@H](O)C[C@@H]1CC[C@@H]1[C@@H]2CC[C@]2(C)C(=O)CC[C@@H]12 | 0.6 | ·
CCN1CCN(c2ccccc2N)CC1 | -1.6 | 17
CCOC(=O)C(O)(c1csc(N)n1)c1c(C)nn(-c2ccc(C)cc2)c1N (centres undefined) | · | 1
N=C1c2ccccc2CN1c1ccc2c(c1)OCCO2 | · | 4
C=CCNC(=O)c1c(N)n(CCN2CCOCC2)c2nc3ccccc3nc12 | · | 7
COc1cc2c3c(c1O)-c1c(cccc1OC)CC3N(C)CC2 (centres undefined) | · | 0
O=c1[nH]c(=S)[nH]c(O)c1N=Nc1ccc(S(=O)(=O)N2CCc3ccccc32)cc1 | · | 13
CC[C@@]1(O)C(=O)OCc2c1cc1n(c2=O)Cc2cc3ccccc3nc2-1 | 1.0&-1.1 | ·
CC(C)Nc1ccc(Nc2ccccc2)cc1 | 2.5 | 19
CN(C)CC#CCN1CCCC2(CCOC(C)(C)C2)C1 (centres undefined) | -4.0 | -1
ClCc1nc2ccccc2[nH]1 | 12 | ·
NC[C@@H]1CCCN2CCCC[C@H]12 | -2.3 | 19
COc1ccc2c(c1)c(C(=O)O)c(C)n2C1CCCCC1 | · | 10
O=[N+]([O-])c1ccc(SCCO)c2nonc12 | 7.2 | ·
CCOC(=O)C1CCN(/C=C2\C(=O)NC(=S)N(CC)C2=O)CC1 | 0.4 | 22

Next results:
Molecule | MgrA-DNA mod | Sa helicase inh
CC(C)(C)c1ccc2ccccc2[o+]1 | · | 19
COc1ccc(CN2C(=O)CC(=O)NC2=S)cc1 | 1.7 | 1
CC12CNCC(C)(CN(Cc3ccccc3)C1)C2 | -2.0 | -8
COc1ccccc1Oc1c(C)oc2cc(OC(=O)N(C)C)ccc2c1=O | · | 1
c1cncc(C2CCCCN2Cc2ccc3c(c2)OCO3)c1 (centres undefined) | -6.8 | 2
CNC(=O)Oc1c(Br)cc2sc(=O)oc2c1Br | 14 | -6
c1cncc(C2CCCCN2)c1 (centres undefined) | 1.5 | ·
N#CC(C#N)=NNc1cc(Cl)cc(Cl)c1 | -0.5 | ·
O=C1/C(=C\c2ccccc2)N2CCC1CC2 | 2.9 | ·
Cc1ccccc1C(=O)Nc1cccc(OC(C)C)c1 | 0.9 | ·
Cc1ccc(-c2ccc(C)c(Cl)c2)cc1Cl | -0.4 | ·
COc1cc(C=C2C(=O)NC(=O)NC2=O)ccc1OCc1ccc([N+](=O)[O-])cc1 | 4.4 | ·
CCCCC[C@@H](/C=C/C=C\CCCCCCCC(=O)O)OO | 4.7 | ·
Cc1ccc(-c2cn3c(n2)sc2cc(C(=O)N4CCC5(CC4)OCCO5)ccc23)cc1 | · | 7
CC(=O)N1CC(=O)Nc2ccc(C)cc2C1c1ccccc1 (centres undefined) | · | 19

Next structures
Molecule | MgrA-DNA mod | Sa helicase inh
CC12CCC3C4CCC(=O)C=C4CCC3C1CCC2O (centres undefined) | · | 9
NCCc1cc(O)c(O)cc1O | 3.3 | ·
CCC(C)n1c(C)cc(C(N)=O)c1C (centres undefined) | · | 21
CC12CCC3C(CC=C4CC(O)CCC43CO)C1CCC2OC(=O)c1ccccc1 (centres undefined) | -0.4 | ·
C[N+]1(C)C2CCC1CC(OC(=O)C(CO)c1ccccc1)C2 (centres undefined) | 0.9&0.2 | -5
CN(C)C(=O)Oc1cc(=O)n(C)c2ccccc12 | -2.0 | ·
CN1CCc2[nH]c(=S)c(C#N)c(-c3ccccc3)c2C1 | 10 | -28
O=C1CN=C(c2ccccc2)c2oc3ccccc3c2N1 | · | -3
O=C(Cc1ccccc1)N1CCN(C/C=C/c2ccccc2)CC1 | · | 8
COc1ccc2[nH]c(C)c(CCNCc3ccc(C#N)cc3)c2c1 | · | -3
CCCCC(=O)Oc1cc2c(C(=O)OCC)c(C)n(CCCC)c2c2ccccc12 | 1.2 | ·
CC(C)c1ccccc1N=C1SCCN1C | · | 6
O=C(CN1CC2CC(C1)c1cccc(=O)n1C2)c1ccc2cc[nH]c2c1 (centres undefined) | · | 13
C1=CCC2NC(C1)Cc1ccccc12 (centres undefined) | -3.6 | -5
CCc1cc2c(s1)NC(=O)CN=C2c1cccs1 | -0.6 | -10

Continuation:
Molecule | MgrA-DNA mod | Sa helicase inh
C/C=C(\C)C(=O)Nc1ccc(Cl)cc1C(=O)c1ccccc1 | 0.2 | ·
CCN1C(=O)C(=C2C=C(C)N(Cc3ccco3)C(C)=C2)C(=O)N(CC)C1=S | · | 3
CCC(CO)NC1CC(C)N(C)CC1C (centres undefined) | 3.0 | 13
CN(C)C=C1C(=O)N(C2CCCCC2)C(=O)N(C2CCCCC2)C1=O | 3.8 | 19
CN1CC2(c3ccccc3)CN(C)CC(c3ccccc3)(C1)C2=O | · | 4
Cc1ccc(C)c(NC2=NCCS2)c1 | · | 13
O=S(=O)(O)c1cc(O)ccc1O | 1.0 | ·
CC(C(=O)N1CCC2(CC1)OCCO2)C1Sc2ccccc2NC1=O (centres undefined) | · | 7
N#Cc1cccc(NC(=O)c2sc3nc4c(cc3c2N)C2CCN4CC2)c1 | 6.7 | 9
CCN(CC)P(=O)(Oc1cccc(C)c1)N(CC)CC | -4.1 | 5
COc1ccc2c(c1O)-c1c(OC)c(OC)cc3c1[C@H](C2)N(C)CC3 | -0.8&-0.3 | ·
O=C1OCCN1P(=O)(c1ccccc1)c1ccccc1 | 3.2 | 4
O=C(c1cccn2c(=O)c3cc(Br)ccc3nc12)N1CCC2(CC1)OCCO2 | -0.1 | 10
c1ccc(CNC2=NCCS2)cc1 | -1.0 | 11
CCNC(=O)C1OC(n2cnc3c(N)ncnc32)C(O)C1O (centres undefined) | · | -7

(further entries)
Molecule | MgrA-DNA mod | Sa helicase inh
O=C1CC(=O)N(Cc2ccccc2)C(=O)N1 | -3.4 | ·
O=C(COC(=O)Cc1ccccc1)Nc1ncc(Cl)cc1Cl | 3.5 | -16
CCCC12CNCC(C)(CNC1)C2=O | 1.8 | 1
CNCc1cccnc1 | · | -4
O=C1C2CCN(CC2)C1Cc1ccc2ccccc2c1O (centres undefined) | · | 3
CCn1c(O)c(N=Nc2ccc(S(=O)(=O)N3CCOCC3)cc2)c(=O)n(CC)c1=S | · | -13
Cc1nc2ccccc2c(=O)n1-c1ccc(Br)cc1 | · | -23
c1ccc2sc(C3CCCNC3)nc2c1 (centres undefined) | · | -13
Cc1ccc(CN(Cc2ccccc2)C(=S)NCC(=O)N2CCC3(CC2)OCCO3)o1 | 4.7 | 16
Clc1ccc(NC2=NCCS2)c(Cl)c1 | -0.7 | ·
CC(C)=CCCC1(C)C=Cc2c(O)c3c(c(CC=C(C)C)c2O1)OC12C(=CC4CC1C(C)(C)OC2(C/C=C(/C)C(=O)O)C4=O)C3=O (centres undefined) | 7.2 | ·
CCSc1sc(CC)cc1CCl | · | 1
COC(=O)C1=C(N)Oc2c(c(=O)oc3ccccc23)C12C(=O)N(C)c1ccccc12 (centres undefined) | · | 14
CC(=O)OC1CC2(C)C(CCC3C2CCC2(C)C(OC(C)=O)CCC32)CC1=O (centres undefined) | -0.5 | ·
CCCc1nc(SCC(=O)c2ccc(Cl)cc2)nc(OC(=O)N(C)C)c1C | -2.6 | ·

Additional entries follow:
Molecule | MgrA-DNA mod | Sa helicase inh
CCN1CCN(c2ccc(N)cc2)CC1 | 0.3 | ·
N#CC[N+]12CCN(CC1)CC2 | 1.6 | 15
Clc1cc(Cl)cc(NC2=NCCS2)c1 | · | -1
Cc1ccc(C)c(C(C)CN)c1 (centres undefined) | · | 12
C=CC1CN2CCC1CC2C(OC(=O)CCC(=O)O)c1ccnc2ccccc12 (centres undefined) | 3.6 | 3
Cn1c(N2CCNCC2)nc2ccccc21 | 4.8 | 0
CCCN1CCC(NC(C)CCCC(C)(C)O)CC1 (centres undefined) | -1.5 | -8
CCOC(=O)C1=C(C)OC(N)=C(C(=O)OCCOC)C12C(=O)Nc1ccc(Br)cc12 (centres undefined) | 0.0 | ·
CSc1nnc(CCN)n1C | 0.7 | 4
COCCCn1c(OC(=O)N(C)C)c(C)c(C)nc1=S | · | -18
Cc1c(C(=O)N2CCC3(CC2)OCCO3)sc2nc(-c3ccccc3)cn12 | 4.3 | 10
O=S(=O)(c1ccccc1)N1CN2CCN(C2)C1 | -2.2 | -6
Cc1ccc(C(=O)CN2CCCC(C)C2)cc1 (centres undefined) | · | -8
OC(c1ccccc1)(c1ccccc1)C1CCCN1 (centres undefined) | -0.5 | ·
CCCSc1nc2ccccc2c(=O)n1-c1ccccc1F | -0.2 | 5

(further entries)
Molecule | MgrA-DNA mod | Sa helicase inh
C=C[C@]12CN(C)C3C4COC(CC41)[C@]1(C(=O)Nc4ccccc41)[C@@H]32 (some centres undefined) | 1.9 | ·
CCCC1(CCC)C(=O)NC(=Nc2ccccc2)NC1=O | 4.5 | 7
COc1ccc(NC2=NCCS2)cc1 | · | 1
CC1O[C@@H](O[C@@H]2C=C3CCC4C(CC[C@]5(C)[C@@H](c6ccc(=O)oc6)CC[C@]45O)[C@@]3(C)CC2)C(O)[C@@H](O)[C@H]1O (some centres undefined) | 1.8 | ·
N#CCCn1cc(C(=O)Cn2cc(C(F)(F)F)ccc2=O)c2ccccc21 | · | 5
O=C(CNC(=S)N1CC2CC(C1)c1cccc(=O)n1C2)NC1CCCCC1 (centres undefined) | · | -12
COc1cc(/C=C/C(=O)O)ccc1OCC(=O)N1CCN(CC(=O)NC(C)(C)C)CC1 | · | 12
CCCCC/C=C\C/C=C\C/C=C\CCCCCCC(=O)NCCO | 11 | ·
O=C(O)c1cc(Cl)nc(Cl)c1 | -1.9 | -7
Cc1ccc2[nH]cc(CCN)c2c1 | 1.1 | ·
COc1ccc2c(c1)c(C(=O)O)c(C)n2C | · | 0
CN(C)/C=C(\C=[N+](C)C)c1[nH]ncc1N | -2.0 | -1
N#C/C(=C\c1ccc(O)c(O)c1)C(N)=S | 0.8 | ·
O=C1/C(=C\c2cc3c(cc2Cl)OCO3)N2CCC1CC2 | -1.9 | 2
CN1C2C[C@H](OC(=O)[C@H](CO)c3ccccc3)C[C@H]1[C@@H](O)C2 | -1.0 | ·

3 compounds from above, ordered by SMILES length, descending:
Molecule | MgrA-DNA mod | Sa helicase inh
CCCC1(CCC)C(=O)NC(=Nc2ccccc2)NC1=O | 4.5 | 7
O=C(O)c1cc(Cl)nc(Cl)c1 | -1.9 | -7
COc1ccc(NC2=NCCS2)cc1 | · | 1

Returning to the listing, starting seven compounds before the break.
Molecule | MgrA-DNA mod | Sa helicase inh
O=C(O)c1cc(Cl)nc(Cl)c1 | -1.9 | -7
Cc1ccc2[nH]cc(CCN)c2c1 | 1.1 | ·
COc1ccc2c(c1)c(C(=O)O)c(C)n2C | · | 0
CN(C)/C=C(\C=[N+](C)C)c1[nH]ncc1N | -2.0 | -1
N#C/C(=C\c1ccc(O)c(O)c1)C(N)=S | 0.8 | ·
O=C1/C(=C\c2cc3c(cc2Cl)OCO3)N2CCC1CC2 | -1.9 | 2
CN1C2C[C@H](OC(=O)[C@H](CO)c3ccccc3)C[C@H]1[C@@H](O)C2 | -1.0 | ·
N#Cc1ccc2[nH]cc(CCN(Cc3ccccc3)Cc3ccccc3)c2c1 | -1.2 | ·
NCCc1ccc(S(N)(=O)=O)cc1 | -7.0 | 6
Cc1c(CN2CC=C(c3ccccc3)CC2)c(=O)n(-c2ccccc2)n1C | · | 15
CCNCC1(c2ccc(OC)c(OC)c2)CCCC1 | 0.3 | 8
S=P1(NCc2ccccc2)NC(=NCc2ccccc2)c2c(nc3n2CCC3)N1 (centres undefined) | 0.4 | 5
CC1OC(NCCc2ccccc2)C(O)C(O)C1O (centres undefined) | · | -9
CCn1ccnc1P(=S)(N(C)C)N(C)C | · | 31
CN(C)S(=O)(=O)c1ccc(N2CCNCC2)cc1 | -3.8 | 6
C#CCN1C(=O)C2(C(C(=O)OCC)=C(N)Oc3ccccc32)C2=C1CC(C)(C)CC2=O (centres undefined) | 0.8 | 16
Cc1cccnc1NC1=NCC(C)S1 (centres undefined) | -0.8 | 6
OC1(c2ccc(F)cc2)CC2CCC(C1)N2Cc1nnnn1Cc1ccco1 (centres undefined) | 16 | 3
O/N=C/c1c[nH]c2ccccc12 | · | 1
Cc1ccc(CS(=O)(=O)Cc2ccc(C(=O)N3CCC4(CC3)OCCO4)o2)cc1 | · | -18
O=C1NC(=O)C(C2(C3C(=O)NC(=O)NC3=O)C(=O)Nc3ccccc32)C(=O)N1 | 1.5 | ·
N#CC(c1c[nH]c2ccccc12)N1CCCC1 (centres undefined) | · | -10
N#CC(C#N)=Cc1ccsc1 | · | -20
CC12CCC3C(CCC4CC(N)CCC43C)C1CCC2O (centres undefined) | 6.1 | 5

As a short view, some entries already given.
Molecule | MgrA-DNA mod | Sa helicase inh
N#CC(C#N)=Cc1ccsc1 | · | -20
CC12CCC3C(CCC4CC(N)CCC43C)C1CCC2O (centres undefined) | 6.1 | 5

Compound activity (PubChem)
